High-throughput results deposited in PubChem BioAssay by several laboratories.
Bead autofluor – counter-screen for toxin protease inhibitors: compound fluorescence; compound autofluorescence counterscreen, microsphere flow cytometry; active compounds read high; fluorescence intensity (no concentration beside the values); hit rate 3.1% among 360,000; AID 624483;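 active means at least 3 SD above the mean of all compounds, about 16000 in these data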;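 further: 100 nL of 1 mM stock went into each well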
PrP 5UTR inh – inhibition of PrP 5' UTR reporter expression | cell-based PrP 5' UTR mRNA reporter, plate reader | inhibition, % (test concentration not listed) | hit rate 0.35% among 340,000 | AID 488862;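 active means every replicate at 50% or more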;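 further: 0 = median of the neutral control wells; tested in H4 reporter cells; numbers are from one replicate; inactives centre near -14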
Mtb hypoxia inh – reduces hypoxia-regulated biosensor signal in M. tuberculosis; fluorescence inhibition, % (test concentration not listed); M. tuberculosis hypoxia-regulated fluorescent reporter, fluorescence; hit rate 0.1% among 300,000;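 active means 35 to 45% if threefold the growth effect, above 45% if 1.5-fold the growth effect; inactive means the rest, general growth blockers included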;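 further: wells of about 50 µL received 100 nL stock; 0% = vehicle wells and 100% = reference inhibitor wells; whole bacteria with a GFP reporter of the hypoxia response; strong numbers were not always called active; many hits fall short of the cut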
Sa ugtP lethal – compounds lethal to S. aureus RN4220 ugtP deletion mutant; OD600 growth, 16 h; some inactives read as strong as hits; growth inhibition, % (test concentration not listed); hit rate 0.54% among 330,000;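 active means z-score under -3 and OD600 up to 0.15 on both plates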;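 further: plate controls were untreated wells for no effect and antibiotic for full effect; wells of about 80 µL received 100 nL stock; the first replicate is given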
BJeLR viability – kills HRASV12-expressing BJeLR cells; inhibition, % (test concentration not listed); AID 1554; hit rate 0.17% among 300,000; BJeLR (HRASV12) viability, CellTiter-Glo ATP luminescence, 48 h; reference of the scale not given here;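 active means replicate mean above 50%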;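 further: 50 nL library stock added to about 25 µL; numbers are from one replicate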
Sa RN4220 lethal – S. aureus RN4220 growth inhibition; AID 1259311; inhibition, % (no concentration beside the values); hit rate 0.33% among 330,000; OD600, 16 h;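 active means z-score of -3 or lower and OD600 up to 0.18 on both plates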;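 further: plate controls were untreated cells for no effect and reference antibiotic for full effect; stock transfer was 100 nL into about 80 µL; one replicate is shown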
Mtb hypoxia inh growth – further read-out of Mtb hypoxia inh, marked with its call; growth inhibition, %; measured here: M. tuberculosis growth (absorbance);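 0% = vehicle and 100% = reference antibiotic; read after six days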
Starred values were filed as active, the others as inactive; nt = no result given.

SMILES	Bead autofluor	PrP 5UTR inh	Mtb hypoxia inh	Mtb hypoxia inh growth	Sa ugtP lethal	BJeLR viability	Sa RN4220 lethal
CCC(C)c1ccccc1NC(=O)C(C)N(C)Cc1cccc(OC)c1 (configuration not stated)	4253	-25	10	-1	12	-17	-2.9
O=c1[nH]c(=S)n(-c2ccc(Cl)cc2)c(O)c1/C=N/N1CCOCC1	3907	-18	3	3	10	-5	2.0
COc1ccc(Cl)cc1Nc1nc(N)c2ccccc2n1	4316	-10	4	8	-13	12	-9.9
COc1ccc(C2C(C#N)=C(N)OC3=C2C(=O)CC(C)(C)C3)c(OC)c1OC (configuration not stated)	4437	-10	3	9	4	2	2.9
CCOC(=O)C1(CCOc2ccccc2)CCN(Cc2ccc(NC(C)=O)cc2)CC1	2025	-22	2	3	6	12	3.7
COc1ccc(C(c2nnnn2CCc2ccccc2)N2CCN(C3CCCC3)CC2)cc1 (configuration not stated)	4287	-11	nt	nt	2	3	-0.8
CCCCCCCN1CCN=C1N(C)C	3781	-14	10	13	4	nt	1.7
Cc1cc(C(=O)C(=O)O)c(C)n1-c1ccc(Cl)c(Cl)c1	4395	-11	5	-8	1	-2	2.1
CN(C)c1ccc(/C=C2/C(=NO)C3CCN2CC3)cc1	nt	nt	-2	-3	7	nt	1.8
Cc1cc(C(F)(F)F)nn1CC(=O)N1CCOCC1	6637	-4	8	15	8	-7	4.7
CCOC(=O)C1(S(=O)(=O)c2ccc(Cl)cc2)CCN(Cc2ccc(Cl)cc2)CC1	23017*	-24	1	0	18	0	-5.5
Cn1c(N2CCN(C(=O)NCc3ccccc3)CC2)nc2ccccc21	3522	-26	9	4	12	-1	4.8
C/C(=N\NC(=O)c1cccc(N/N=C(\C)c2cc(O)ccc2O)c1)c1cc(O)ccc1O	2079	-21	nt	nt	nt	16	nt
COc1ccc(N2CCN(CC(=O)Nc3ccccc3C(=O)NCc3ccccc3)CC2)cc1	3088	-4	0	-4	4	nt	2.5
O=C(NCCc1ccc(Cl)cc1)C1CCC(CNc2nc(=S)[nH]c3ccccc23)CC1 (configuration not stated)	3932	-8	1	-6	-1	4	-11
COc1cc(/C=C/C(=O)OCC(=O)N2CCOCC2)ccc1OCC#N	4544	-14	7	16	1	-16	3.3
COc1ccccc1CC(N)=NOC(=O)COc1cc(C)cc(C)c1C	nt	nt	5	4	19	nt	5.7
CC1=C(C)CC(C(=O)Nc2nc(-c3ccc(F)cc3)c(C)s2)C(C(=O)O)C1 (configuration not stated)	2095	-9	4	4	-1	0	15
CCc1nc2ccc(C(=O)NC3CCC(C)CC3)cc2nc1CC (configuration not stated)	5941	-52	17	9	-2	-8	13
COc1cccc(-c2ccc(NC(=O)C3CCCN(Cc4cnn(C)c4)C3)cc2)c1 (configuration not stated)	6018	-18	-1	6	7	6	-3.4
Cc1ccc(-c2noc(COc3ccc4c(c3)OCO4)n2)cc1	2972	-4	3	5	-4	-5	-16
CN(C)C1=C(Cl)C(=O)N(c2ccc(Cl)c(Cl)c2)C1=O	5034	-14	0	9	-2	3	4.3
CCn1c2ccccc2c2cc(NC(=O)c3ccc([N+](=O)[O-])cc3)ccc21	2392	-21	nt	nt	-11	0	1.1
N#Cc1c(-c2ccco2)ccn(Cc2cccc(F)c2)c1=O	4587	-26	10	3	6	-5	5.2
CN1CCN(Cc2nnc3n2-c2ccc(Cl)cc2C(c2ccccc2)=NC3)CC1	11056	-17	-2	5	0	2	5.6
O=C(CSc1ccc(-c2cccs2)nn1)Nc1ccccc1	4399	-13	17	2	9	-16	15
COc1ccc(OCC(=O)N2N=C(C(F)F)CC2(O)C(F)F)cc1 (configuration not stated)	1981	-12	-2	2	5	-5	4.3
COc1ccc(CNC(=O)C2CCN(S(=O)(=O)N3CC(C)CC(C)C3)CC2)cc1 (configuration not stated)	5523	1	2	9	9	-7	-4.1
S=c1[nH]nc(-c2ccn[nH]2)n1-c1ccccc1Cl	3532	-28	-4	-4	8	-15	3.7
COc1ccccc1C(=O)Nc1ccc(OCc2nnc3c4ccccc4c(C)nn23)cc1	2287	-29	-5	3	-2	5	-0.5
Cc1cccc(C(=O)NCCNc2nc3cc(C)c(C)cc3cc2C)c1	2594	-6	-13	-8	-17	4	-7.3
COc1ccc(-n2c(SCC(=O)Nc3ccc(C(=O)O)cc3)nnc2-c2cccs2)cc1	4464	-1	6	-2	10	-2	4.7
Cc1c(Cl)cccc1-c1ccc(CNCc2ccccn2)o1	3124	-3	-2	15	-8	-4	-1.1
CCC(C)(C(=O)NC1CCCC1)N(C(=O)c1ccccn1)c1ccc(C)cc1 (configuration not stated)	4423	-21	23	16	0	5	1.1
COc1ccc(OC)c(S(=O)(=O)n2nnc3cc(Cl)ccc32)c1	13100	-16	14	2	4	-4	5.7
Cc1ccc(C(CNS(=O)(=O)c2ccc(C)cc2)N2CCN(C)CC2)cc1 (configuration not stated)	nt	-14	2	1	4	-3	1.3
CCOC(=O)NN1C(=O)c2ccccc2NC12CCCC2	3919	2	-2	1	17	6	6.9
Cc1ccc(S(=O)(=O)N2CCN(C(=O)CN3C(=O)NC(C)(CCC(C)C)C3=O)CC2)c(C)c1 (configuration not stated)	3089	-11	5	2	1	nt	-3.0
CC1CN(C)C(C)(C)CC1(O)c1ccccc1 (configuration not stated)	9222	-21	8	5	7	-1	6.5
O=C(NS(=O)(=O)c1ccccc1Cl)c1ccc[nH]1	nt	nt	3	2	7	-2	7.8

Reprinted at random: two compounds from above
SMILES	Bead autofluor	PrP 5UTR inh	Mtb hypoxia inh	Mtb hypoxia inh growth	Sa ugtP lethal	BJeLR viability	Sa RN4220 lethal
CCC(C)(C(=O)NC1CCCC1)N(C(=O)c1ccccn1)c1ccc(C)cc1 (configuration not stated)	4423	-21	23	16	0	5	1.1
O=C(NS(=O)(=O)c1ccccc1Cl)c1ccc[nH]1	nt	nt	3	2	7	-2	7.8

Returning to the listing, starting 7 compounds before the break.
SMILES	Bead autofluor	PrP 5UTR inh	Mtb hypoxia inh	Mtb hypoxia inh growth	Sa ugtP lethal	BJeLR viability	Sa RN4220 lethal
CCC(C)(C(=O)NC1CCCC1)N(C(=O)c1ccccn1)c1ccc(C)cc1 (configuration not stated)	4423	-21	23	16	0	5	1.1
COc1ccc(OC)c(S(=O)(=O)n2nnc3cc(Cl)ccc32)c1	13100	-16	14	2	4	-4	5.7
Cc1ccc(C(CNS(=O)(=O)c2ccc(C)cc2)N2CCN(C)CC2)cc1 (configuration not stated)	nt	-14	2	1	4	-3	1.3
CCOC(=O)NN1C(=O)c2ccccc2NC12CCCC2	3919	2	-2	1	17	6	6.9
Cc1ccc(S(=O)(=O)N2CCN(C(=O)CN3C(=O)NC(C)(CCC(C)C)C3=O)CC2)c(C)c1 (configuration not stated)	3089	-11	5	2	1	nt	-3.0
CC1CN(C)C(C)(C)CC1(O)c1ccccc1 (configuration not stated)	9222	-21	8	5	7	-1	6.5
O=C(NS(=O)(=O)c1ccccc1Cl)c1ccc[nH]1	nt	nt	3	2	7	-2	7.8
O=c1[nH]c2ccccc2cc1CN(Cc1cccnc1)S(=O)(=O)c1ccc(Cl)cc1	3870	-7	6	8	0	10	3.7
Cc1nc2c(ccc3nc(NC(=O)Cc4ccccc4)sc32)s1	4231	-19	nt	nt	nt	4	nt
COc1ccccc1N=Cc1c(O)n(C)c(=O)n(C)c1=O	4119	-18	-6	-1	-3	-12	-1.6
O=C(COC(=O)COc1ccccc1)NC1CCCc2ccccc21 (configuration not stated)	2360	0	6	8	0	-4	3.0
O=c1cc(CN2CCN(S(=O)(=O)c3ccccc3[N+](=O)[O-])CC2)nc2sccn12	4205	-18	18	6	9	4	4.9
CCc1nc(NCCCn2ccnc2)c2oc3ccccc3c2n1	3121	-2	-2	6	-9	-5	-8.4
CC(C)NC(=S)N1CCN(C/C=C/c2ccccc2)CC1	4596	0	10	7	15	-4	0.9
CCOC(=O)/C(C#N)=C1\Nc2ccccc2N=C1N(CC(C)C)CC(C)C	9201	5	1	5	7	10	-13
CSc1c(CC(=O)Nc2ccccc2Cl)n(Cc2ccccc2)c2ccccc12	4635	-22	nt	nt	1	6	-2.0
COC(=O)c1c(NS(=O)(=O)c2ccc3ccccc3c2)sc2c1CCCC2	11163	-17	2	7	78	4	87*
COc1ccc(S(=O)(=O)N2CCOCC2)cc1C(=O)NC1CCCCCC1	8871	-24	5	6	11	nt	4.5
Cc1ccc(-c2csc(NC(=O)c3cccs3)n2)cc1	4794	-61	nt	nt	-5	2	-2.9
COc1ccc(/C=N/NC(=O)C2(C)NC(C)(C)Cc3ccccc32)cc1 (configuration not stated)	3807	-11	nt	nt	nt	-12	nt
Cc1ccc2c(c1)N(CCC(=O)NC1CCCCC1C)C(=O)CO2 (configuration not stated)	4458	-3	4	5	5	-8	2.5
CCOc1ccccc1Nc1nc(N)nc(CN(C)C2CCCCC2)n1	4693	-10	nt	nt	-4	nt	-3.7
CC1(C)C(=O)NCCN1C(=O)CCCC(=O)O	4731	-1	-6	3	5	-15	6.1
COc1ccc(CCNCc2ccncc2)cc1OC	9222	-7	2	5	-1	-16	4.9
COc1ccc(NS(=O)(=O)c2cccc(C(=O)Nc3cccc(C(=O)O)c3)c2)cc1	4059	-21	-7	-19	-4	4	-6.4
O=C(NC1CC1)c1nc(Cn2ccc([N+](=O)[O-])n2)no1	3635	-8	4	5	11	-6	-0.6
O=C(O)CC1S/C(=N\N=C2CCCCCCC2)N(c2ccccc2)C1=O (configuration not stated)	4362	-24	nt	nt	nt	0	nt
CCCNC(=O)CS(=O)Cc1nc(-c2ccc(OC)cc2)oc1C (configuration not stated)	6053	-1	-6	13	-4	-4	-14
COc1ccc(Cl)cc1NC(=O)N1CCC(C)CC1	2390	-7	0	18	0	-9	-2.6
N/C(CC(=O)Nc1cccc(C(F)(F)F)c1)=N/O	9362	-20	nt	nt	nt	-2	nt
Cc1ccccc1C(=O)NN=Cc1ccc(OCC(=O)N2CCCCC2)cc1	nt	nt	11	11	11	nt	4.1
O=C(CN1C(=O)c2cccnc2Oc2ccc(Cl)cc21)NC1CCCC1	5766	-1	-10	4	-1	-4	-3.0
O=C(NNc1ncnc2c1cnn2-c1ccc(F)cc1)c1ccco1	6311	-24	11	6	-1	4	5.5
COc1ccccc1NS(=O)(=O)c1cccc(C(=O)N2CCN(C/C=C/c3ccccc3)CC2)c1	5875	-19	-10	-4	7	-1	-7.8
Cc1c(C)n(CC(O)CNc2ccccc2)c2ccccc12 (configuration not stated)	4391	-4	3	8	2	-8	3.1
CCOC(=O)CN1C(c2ccccc2O)Nc2ccc(Br)cc2C1c1ccccc1 (configuration not stated)	2140	1	-2	0	10	2	-5.4
CCCCn1c(N)c(N(CCOC)C(=O)CCCc2cccs2)c(=O)[nH]c1=O	5696	1	6	1	2	-9	0.9
CCN(Cc1ccncc1)C(=O)Cc1cccs1	2990	2	10	-2	2	-3	-0.1
Cc1ccc(C(=O)N2CCC(C(=O)NCc3cccnc3)CC2)cc1	4559	1	0	-3	8	-9	1.8
O=C(Nc1nncs1)C1CC(=O)N(C2CCCC2)C1 (configuration not stated)	6295	-24	3	-1	8	0	3.2
CC1(C(=O)O)CCC(C(N)=O)C1(C)C (configuration not stated)	4536	-19	5	0	11	-15	2.2
CCOC(=O)c1cnc2ccc(Cl)cc2c1Nc1ccc(S(=O)(=O)Nc2ncccn2)cc1	2501	-9	14	5	11	-4	8.6
CCCCC1=CC2=CC(=O)C(C)(OC(=O)CC)C(=O)C2=CN1CCCCO (configuration not stated)	3056	-29	5	3	-3	-9	2.8
O=C(Nc1ccccc1)C1CCN(C(=O)c2ccc(Br)cc2)CC1	5601	-10	8	3	6	3	2.3
Cc1cc(OCC(=O)OC(C)(C)C)c2c3c(c(=O)oc2c1)CCC3	6977	4	-8	4	0	-5	1.4
O=C(CNC(=O)c1ccc(Cl)cc1)OCc1nc2ccccc2s1	2531	-2	0	5	3	12	3.8
CCOc1ccc(-c2c(C)n([O-])c3c([n+]2=O)CCCC3)cc1	2415	-6	nt	nt	-2	-4	1.1
CCN(CC)c1ccc(/C=N/N=C(N)N)c(O)c1	5450	62*	nt	nt	nt	48	nt
Cn1cnc([N+](=O)[O-])c1Sc1ccc(Br)cc1	1990	-11	6	15	11	4	0.3
COc1ccc(C)cc1S(=O)(=O)N(CC(=O)NCc1ccc(Cl)cc1)Cc1ccccc1	22998*	-32	-2	9	-36	-8	-13
Clc1ccc(OCCCNCc2ccccc2)c2ccccc12	3458	-20	12	21	95*	-4	100*
